Mtb H37Rv: M. tuberculosis H37Rv growth inhibitors, H37Rv strain (AID 1626); M. tuberculosis H37Rv growth inhibition; higher % means a stronger effect; one-dose inhibition, % at 10 µM; IC50 in µM for titrated hits; 0.95% of 220,000 active;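 active = confirmed in a dose series; inconclusive = inhibition above 80% but not taken into the dose series; inactive = below 80% or under 30% at every dose of the series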;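 note: bacteria incubated seven days before Alamar blue readout; 0% = bacteria only wells and 100% = bacteria with antibiotic wells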
RecA splice inh: Mtb RecA intein splicing inhibition; P9WHJ3; cell-free RecA intein splicing, fluorescence; inhibition, %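 (about 9 µM by stock and volumes)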; 0.75% of 290,000 active; in the data active = inhibition above about 30%; inconclusive = no clear call, values can overlap the other calls;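 note: 0% = vehicle wells and 100% = reference inhibitor control wells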
Target sequence (P9WHJ3 whole entry, looked up, canonical isoform): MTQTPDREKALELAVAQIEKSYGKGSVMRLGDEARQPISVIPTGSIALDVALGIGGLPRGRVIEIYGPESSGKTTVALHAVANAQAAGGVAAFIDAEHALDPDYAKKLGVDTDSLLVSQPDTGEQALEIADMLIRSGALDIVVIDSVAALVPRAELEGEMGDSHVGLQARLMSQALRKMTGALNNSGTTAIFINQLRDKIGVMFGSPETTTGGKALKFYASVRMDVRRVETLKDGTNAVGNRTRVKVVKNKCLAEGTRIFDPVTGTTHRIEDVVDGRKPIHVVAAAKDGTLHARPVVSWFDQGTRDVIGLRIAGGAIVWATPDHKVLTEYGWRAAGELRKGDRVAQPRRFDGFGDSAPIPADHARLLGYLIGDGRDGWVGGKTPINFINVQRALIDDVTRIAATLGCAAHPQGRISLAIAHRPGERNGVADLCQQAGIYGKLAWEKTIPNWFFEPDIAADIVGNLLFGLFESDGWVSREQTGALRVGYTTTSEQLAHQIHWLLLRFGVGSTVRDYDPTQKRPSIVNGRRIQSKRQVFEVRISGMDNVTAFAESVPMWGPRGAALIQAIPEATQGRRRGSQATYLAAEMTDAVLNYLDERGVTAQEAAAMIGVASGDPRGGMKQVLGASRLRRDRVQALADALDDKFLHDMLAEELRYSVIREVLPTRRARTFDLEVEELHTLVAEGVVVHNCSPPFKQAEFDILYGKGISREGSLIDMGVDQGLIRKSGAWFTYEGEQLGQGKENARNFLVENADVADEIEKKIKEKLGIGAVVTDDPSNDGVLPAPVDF
Mtb bLac sens: beta-lactam sensitization of Mtb H37Rv; M. tuberculosis H37Rv growth with meropenem, percent inhibition; hits of this screen are not shown here; inhibition, % at 25 µM; AID 434955; 0.27% of 330,000 active;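 active = about 74% or more and at least 40 points above the plate without the antibiotic, then above 30% in a dose series; inconclusive = first-round hits that could not be retested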;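 note: growth measured after seven days incubation then overnight dye step; 0% = bacteria only wells and 100% = bacteria with antibiotic; twin plates without the antibiotic show which effects depend on it; some results filed as inactive read as strong as hits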
YopH PTP inh: blocks Yersinia enterocolitica YopH tyrosine phosphatase. AID 898. inhibition, %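 (about 10 µM by stock and volumes)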. fluorescence Ex485/Em525. 0.16% of 140,000 active;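 active = inhibition of 50% or more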;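 note: controls were vehicle for no effect and minimum signal wells for full effect; inactives centre near -20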
Arbovirus inh: arbovirus infection inhibition; arbovirus infection cell-based antiviral screen; inhibition, % at 10 µM; 0.37% of 200,000 active; AID 1251;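 active = inhibition from about 30%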;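 note: bluetongue infection of BSR cells; cell survival read as ATP light after 72 h; 0% = infected wells without compound and 100% = uninfected wells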
Arbovirus inh repeat: also measured in Arbovirus inh; calls as there; inhibition, %; measured here: 10K subset replicate screen; many hits read low in the repeat;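 first of two repeat runs on a subset; 0% = infected and 100% = uninfected wells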
* marks the source's active call; other numbers are inactive results; i = inactive; ? = inconclusive; nt = no result given. An excerpt; rates above refer to the full screens.

SMILES	Mtb H37Rv	RecA splice inh	Mtb bLac sens	YopH PTP inh	Arbovirus inh	others
O=C(CCC1CCCCC1)NCc1ccccn1	6%	0.1	2	-31	-8
Cc1cccc(C(=O)N[C@H](C(=O)Nc2nc3ccccc3[nH]2)C(C)C)c1	9%	1.5	1	nt	-10
CC(C)CNS(=O)(=O)c1ccc(CCC(=O)Nc2cc(Cl)ccc2Oc2ccccc2)cc1	9%	3.9	0	-21	-16
COC(=O)[C@]1(Cc2ccccc2)N[C@H](c2ccc(-c3ccc(Cl)c(Cl)c3)cc2)[C@@H]2C(=O)N(C)C(=O)[C@@H]21	nt	0.5	-1	nt	nt
O=C(NCc1ccco1)c1cnn2cccnc12	3%	-1.6	-4	nt	2
O=C(c1cccc(Cl)c1)N1CCN(C2CCCCC2)CC1	nt	-0.8	-2	nt	nt
N#Cc1c(F)cccc1NCCCn1ccnc1	nt	-3.4	3	nt	nt
COCCCNC(=O)Cn1c(=O)n(Cc2ccccc2Cl)c(=O)c2cc(OC)c(OC)cc21	4%	-0.7	-1	nt	3
NC(=O)CC1(CC(=O)O)CCCCC1	-8%	8.0	-4	-2	6
Cc1cc(C(=O)N/N=C/c2cccn2C)no1	-2%	4.6	3	-6	-4
CCN(CC)S(=O)(=O)c1ccc(NC(=O)c2cc(-c3ccccc3)nc3ccccc23)cc1	-7%	0.8	6	-20	1
COCCN(C(=S)Nc1cccc(C)c1)C(C)c1cccs1 (stereo unspecified)	0%	0.0	1	-19	-2
CCCCn1c(N)c(N(CCOC)C(=O)CCc2ccc(OC)cc2)c(=O)[nH]c1=O	2%	-2.3	1	-17	-1
Cc1ccccc1-n1c(C)nc2ccccc21	-2%	0.1	-5	-39	1	Arbovirus inh repeat=1
CC(C)C(NS(=O)(=O)c1cccs1)C(=O)N(C)Cc1ccccc1 (stereo unspecified)	0%	2.3	6	-40	4
O=C(O)c1ccccc1OCc1nc2ccccc2s1	nt	6.2	78	nt	nt
Cn1c2c(c(=O)n(C)c1=O)C(NC(=O)c1ccco1)(C(F)(F)F)C(=O)N2 (stereo unspecified)	0%	-1.7	2	-40	5
COc1ccc(CN2CCCC(C(=O)Nc3cccc(-n4cccn4)c3)C2)c(F)c1 (stereo unspecified)	nt	2.9	-11	nt	nt
COc1ccc(CCNC(=O)CC2SC(=Nc3cc(C)cc(C)c3)NC2=O)cc1OC (stereo unspecified)	2%	-1.3	-4	nt	16
Cc1ccc(C(=O)N2CCCCC2C(=O)O)o1 (stereo unspecified)	-2%	-2.6	-2	nt	2
COc1ccc(-n2nc3cc(C)c(N)c(Br)c3n2)cc1	8%	5.5	72	5	0
CN1C(=O)C(=Cc2ccc(N(C)C)c([N+](=O)[O-])c2)C(=O)N(C)C1=O	-4%	-1.2	-2	nt	7
COc1ccc(-c2noc(CSc3nc4ccccc4c(=O)n3-c3ccccc3)n2)cc1	5%	5.3	?	5	-8
O=C1CC2(CON=C2c2ccc(F)cc2)C(=O)N1c1ccc(F)cc1 (stereo unspecified)	-7%	-4.0	4	-25	9
O=C(Nc1ccc2snnc2c1)N1CCSCC1	-8%	-1.3	-3	-15	-6
Cc1ccc(OCCC(=O)OCC(=O)Nc2cc(S(=O)(=O)N(C)C)ccc2C)cc1	1%	-0.1	1	nt	14
COc1ccccc1N=c1oc2cc(O)ccc2cc1C(N)=O	-5%	i	67	-47	-13
CN(C)C(=O)c1ccc(NC(=O)c2cc(-n3cnnc3)ccc2Cl)cc1	0%	3.8	-4	-24	4
O=C(O)C1=C(C(=O)Nc2cccc(C(F)(F)F)c2)CCCC1	-1%	0.8	-2	nt	3
O=C(NCc1cccnc1)c1ccc(NC(=O)c2ccc(Br)cc2)cc1	nt	0.7	3	nt	nt

Copied from the results shown (22 entries):
SMILES	Mtb H37Rv	RecA splice inh	Mtb bLac sens	YopH PTP inh	Arbovirus inh	others
NC(=O)CC1(CC(=O)O)CCCCC1	-8%	8.0	-4	-2	6
Cc1cc(C(=O)N/N=C/c2cccn2C)no1	-2%	4.6	3	-6	-4
CCN(CC)S(=O)(=O)c1ccc(NC(=O)c2cc(-c3ccccc3)nc3ccccc23)cc1	-7%	0.8	6	-20	1
COCCN(C(=S)Nc1cccc(C)c1)C(C)c1cccs1 (stereo unspecified)	0%	0.0	1	-19	-2
CCCCn1c(N)c(N(CCOC)C(=O)CCc2ccc(OC)cc2)c(=O)[nH]c1=O	2%	-2.3	1	-17	-1
Cc1ccccc1-n1c(C)nc2ccccc21	-2%	0.1	-5	-39	1	Arbovirus inh repeat=1
CC(C)C(NS(=O)(=O)c1cccs1)C(=O)N(C)Cc1ccccc1 (stereo unspecified)	0%	2.3	6	-40	4
O=C(O)c1ccccc1OCc1nc2ccccc2s1	nt	6.2	78	nt	nt
Cn1c2c(c(=O)n(C)c1=O)C(NC(=O)c1ccco1)(C(F)(F)F)C(=O)N2 (stereo unspecified)	0%	-1.7	2	-40	5
COc1ccc(CN2CCCC(C(=O)Nc3cccc(-n4cccn4)c3)C2)c(F)c1 (stereo unspecified)	nt	2.9	-11	nt	nt
COc1ccc(CCNC(=O)CC2SC(=Nc3cc(C)cc(C)c3)NC2=O)cc1OC (stereo unspecified)	2%	-1.3	-4	nt	16
Cc1ccc(C(=O)N2CCCCC2C(=O)O)o1 (stereo unspecified)	-2%	-2.6	-2	nt	2
COc1ccc(-n2nc3cc(C)c(N)c(Br)c3n2)cc1	8%	5.5	72	5	0
CN1C(=O)C(=Cc2ccc(N(C)C)c([N+](=O)[O-])c2)C(=O)N(C)C1=O	-4%	-1.2	-2	nt	7
COc1ccc(-c2noc(CSc3nc4ccccc4c(=O)n3-c3ccccc3)n2)cc1	5%	5.3	?	5	-8
O=C1CC2(CON=C2c2ccc(F)cc2)C(=O)N1c1ccc(F)cc1 (stereo unspecified)	-7%	-4.0	4	-25	9
O=C(Nc1ccc2snnc2c1)N1CCSCC1	-8%	-1.3	-3	-15	-6
Cc1ccc(OCCC(=O)OCC(=O)Nc2cc(S(=O)(=O)N(C)C)ccc2C)cc1	1%	-0.1	1	nt	14
COc1ccccc1N=c1oc2cc(O)ccc2cc1C(N)=O	-5%	i	67	-47	-13
CN(C)C(=O)c1ccc(NC(=O)c2cc(-n3cnnc3)ccc2Cl)cc1	0%	3.8	-4	-24	4
O=C(O)C1=C(C(=O)Nc2cccc(C(F)(F)F)c2)CCCC1	-1%	0.8	-2	nt	3
O=C(NCc1cccnc1)c1ccc(NC(=O)c2ccc(Br)cc2)cc1	nt	0.7	3	nt	nt

Later entries.
SMILES	Mtb H37Rv	RecA splice inh	Mtb bLac sens	YopH PTP inh	Arbovirus inh	others
Cc1ccc(NC2=C(NC(=O)c3ccccc3)C(=O)c3ccccc3C2=O)cc1Cl	6%	70*	88	25	-38
COc1cccc(-c2nc(CS(=O)(=O)CC(=O)N3CCc4ccccc4C3)c(C)o2)c1	-2%	-0.7	-2	80*	0	Arbovirus inh repeat=-4
CCOC(=O)c1c(C)[nH]c2c1-c1ccccc1C(=O)C2=O	38%	98*	nt	79*	-36
Cc1ccc(NC2CCCN(C(=O)c3c(C)noc3C)C2)cc1C (stereo unspecified)	nt	-4.1	0	nt	nt
Cc1ccc(CNC(=O)C(Cc2ccccc2)NS(=O)(=O)c2ccc3c(c2)CCC(=O)N3)cc1 (stereo unspecified)	-6%	nt	-4	-38	-8
O=C(NNc1ccc([N+](=O)[O-])cc1)c1ccccc1F	?	nt	nt	nt	-12
CC[C@@H]1CN(C)[C@H]2Cc3c([nH]c4ccccc34)C(=O)C[C@@H]1[C@@H]2C(=O)OC	4%	2.1	-4	nt	nt
C[C@H](NC(=O)OC(C)(C)C)C(=O)NCC1CCC(C(=O)N[C@@H](Cc2ccccc2)C(=O)O)CC1 (stereo partly specified)	nt	1.4	-2	nt	nt
CN(C)CC/C=C1\c2ccccc2Sc2ccc(Cl)cc21	11%	3.8	80	-21	-44
Cc1ccccc1CN(c1ccc(C(=O)Nc2ccccc2C(=O)NCc2ccco2)cc1)S(C)(=O)=O	19%	3.8	nt	-22	3
CCCc1cc(=O)oc2c(C)c(OCC(=O)NC3CC(C)(C)NC(C)(C)C3)ccc12	nt	-0.5	-3	nt	nt
Cc1ccc(N2C(=O)CC(Sc3nc(-c4ccccc4)c4cc(Cl)ccc4n3)C2=O)c(C)c1 (stereo unspecified)	0%	-0.8	13	-24	-11
CC1(C)CC(=O)C2=C(C1)OC(N)=C(C#N)C2C1CC=CCC1 (stereo unspecified)	6%	-0.4	-7	-3	2
Cc1ccc(NC(=O)c2ccc3nsnc3c2)c(Cl)c1	nt	-0.7	-4	nt	nt
CC(Sc1ccccc1)C(=O)Nc1ccc(N2CCOCC2)cc1 (stereo unspecified)	-2%	-11	-2	2	4

2 records drawn at random from the list so far, as already listed:
SMILES	Mtb H37Rv	RecA splice inh	Mtb bLac sens	YopH PTP inh	Arbovirus inh	others
CC[C@@H]1CN(C)[C@H]2Cc3c([nH]c4ccccc34)C(=O)C[C@@H]1[C@@H]2C(=O)OC	4%	2.1	-4	nt	nt
CCCc1cc(=O)oc2c(C)c(OCC(=O)NC3CC(C)(C)NC(C)(C)C3)ccc12	nt	-0.5	-3	nt	nt

Further entries:
SMILES	Mtb H37Rv	RecA splice inh	Mtb bLac sens	YopH PTP inh	Arbovirus inh	others
CCOC(=O)CSc1nnc(CSc2nc(C)cc(C)n2)n1Cc1ccco1	-14%	3.4	-3	-35	5
O=C(Cn1c(=O)sc2ccccc21)NCCOc1ccccc1F	-3%	-0.4	5	-120	-3	Arbovirus inh repeat=2
COc1cc(/C=C(\C#N)C(=O)Nc2ccc3ccccc3c2)c([N+](=O)[O-])cc1OC	nt	-3.4	?	-21	4
COc1cccc(OC)c1C(=O)Nc1ccccc1NC(=O)c1c(OC)cccc1OC	nt	-0.2	0	nt	nt
O=C(N/N=C\c1cccnc1)c1ccccc1O	nt	-3.0	-6	nt	nt
Cc1cccc(NC(=O)c2ccc(COc3cccc4ccccc34)o2)n1	6%	3.4	-3	-27	-34
O=C(Nc1ccc(OC(F)(F)C(F)F)c(NC(=O)c2cccc(F)c2)c1)c1cccc(F)c1	-2%	-1.5	-1	-29	-4
CCNc1c2c(nc3ccccc13)CC(C)(C)CC2=O	16%	-1.2	7	-12	-4
O=[N+]([O-])c1ccc(O)c(/C=N\N=C2c3ccccc3-c3ccccc32)c1	1%	0.0	-1	-21	-11
Cc1cccc(NC(=O)CSCC(=O)OCc2ccccn2)c1	nt	1.2	-4	nt	nt
COc1cccc(C(=O)Nn2c(C)nnc2-n2nc(C)cc2C)c1	-6%	-3.5	-6	-15	6
COc1ccc(C(=O)N/C(=C\c2cn(C)c3ccccc23)C(=O)NCCN2CCOCC2)cc1OC	nt	-0.1	-1	nt	nt
C=CCCC(=O)Nc1ccc(COC(=O)N2CCOCC2)cc1	0%	1.7	-1	3	12
CCOC(=O)N1CCN(c2nc(-c3ccc(OC)cc3)no2)CC1	2%	-7.9	-2	-29	10
c1ccc2c(CSc3nnc(-c4ccncc4)o3)cccc2c1	0%	2.2	7	2	-31
COCC(=O)Nc1cc(Cl)ccc1C(F)(F)F	-5%	2.1	6	nt	-2
Cc1ccc2c(c1)C(c1ccccc1)NCC(=O)N2 (stereo unspecified)	2%	-1.3	1	-17	0
O=C(CNC(=O)c1ccc(OC(F)F)cc1)Nc1cccc(S(=O)(=O)N2CCCC2)c1	nt	-0.6	-17	nt	nt
Nc1c2c(nc3ccccc13)CSCC2	nt	-1.7	-7	nt	nt
Nc1ccc(O)c(-c2nc3ccccc3s2)c1	-14%	-13	-6	2	-7	Arbovirus inh repeat=-11
Cc1cc(=O)n2nc(N3CCCC3C(=O)Nc3cccc(F)c3)sc2n1 (stereo unspecified)	nt	-1.4	9	nt	nt
COc1cc(/C=C2\SC(=S)N(Nc3ncc(C(F)(F)F)cc3Cl)C2=O)ccc1O	-1%	9.8	3	1	-6
CC1CCN(CCOc2ccc(C(=O)c3ccccc3)cc2)CC1	nt	2.5	-3	nt	nt
Cc1ccccc1-n1cc(CNC(=O)CC2C(=O)NCCN2C/C=C/c2ccccc2)cn1 (stereo unspecified)	-1%	-1.4	-4	nt	5
CN(c1ccccc1)S(=O)(=O)c1ccc2[nH]c(=O)oc2c1	nt	-0.1	2	nt	nt
O=C1OC(Nc2ccccn2)c2ccccc21 (stereo unspecified)	-10%	0.3	-9	-36	3
CCOc1ccc(NC(=O)CSC2=NCCN2)cc1	12µM*	-0.3	96	-18	5
COC(=O)c1cccc(N(C(=O)c2cnccn2)C(C(=O)NCc2ccccc2)c2ccco2)c1 (stereo unspecified)	-7%	5.9	-2	0	-5
COc1ccc(N2CCN(C(=O)COC(=O)c3cccc(S(=O)(=O)Nc4cccc(C)c4)c3)CC2)cc1	nt	-1.7	-5	nt	nt
CC(C)N(C(=O)COC(=O)c1ccccc1C(=O)c1ccc(Cl)c([N+](=O)[O-])c1)C(C)C	-2%	20	0	nt	0
CCN1CCN(CCNC(=O)c2ccc(CS(=O)c3ccc(Br)cc3)o2)CC1 (stereo unspecified)	nt	-3.8	-2	nt	nt

High-throughput results from PubChem.
